# Screening data as filed in PubChem.
# HIV Env fusion = blocks HIV Env-driven cell-cell fusion; HeLa-JRFL Env/CEM21 cell fusion, luciferase; inhibition, % at 12.3 µM; 360,000 compounds, 1.1% hits; AID 651610;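 active means mean replicate inhibition score of at least 50 and every replicate individually at or above 50; inconclusive means only one of the two criteria met; inactive means mean below 50 and not all replicates reaching 50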;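 further: 0% = plate neutral controls and 100% = maraviroc near 300 nM; one replicate is shown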
# MT1-MMP act inh = inhibitors of human MT1-MMP activation; P50281; HT1080 RFP-PRO-GFP cells, GFP/RFP ratio fluorescence, overnight; percent of plate control window, DMSO zero; GFP/RFP ratio change, % at 20 µM; 360,000 compounds, 0.061% hits; AID 651647;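 active means GFP/RFP ratio change of at least 30% with cell ATP level not reduced by more than half and red fluorescence within 50% of control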; further: strong numbers were not always called active
#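 Assay system: RFP-PRO-GFP reporter HT1080 cells; read-out basis: GFP/RFP fluorescence ratio; benchmarks: DMSO wells and RFP-L50D-GFP cells; doses: 20 µM single dose, 1% DMSO; schedule: overnight cell settling, then overnight compound exposure, 37 °C, 5% CO2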
# MT1-MMP act inh RFP = also measured in MT1-MMP act inh; calls as there; RFP signal change, %; measured here: RFP expression control read;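 0 = vehicle wells; hits needed this value within 50% of zero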
# * hit, by the source's call; ? = inconclusive; [ ] = dose if it differs, or a comment. An excerpt, so the mix of outcomes need not match the whole.
HIV Env fusion	MT1-MMP act inh	MT1-MMP act inh RFP	SMILES
4	2	5	CC1(C(=O)NCc2ccccc2)CN(S(C)(=O)=O)CC(=O)N1Cc1ccc2c(c1)OCO2 (stereo not given)
-39	1	0	CC(Oc1ccc(Cl)cc1Cl)C(=O)NC(Cc1ccccc1)C(=O)O (stereo not given)
-40	-2	-1	COC(=O)[C@]12CCCCC=C1N(Cc1ccccc1)C(=O)[C@H](CC(=O)N1CCCC1)C2
7	4	6	CCN(C)C1CN(Cc2cn(Cc3cccc(C(F)(F)F)c3)nn2)S(=O)(=O)C1 (stereo not given)
-12	19	-8	COc1cc(/C=C2\SC(=O)N(c3cccc(Cl)c3)C2=O)cc([N+](=O)[O-])c1O
-5	-7	-13	CCOC(=O)[C@]12CCCC=C1N(CCc1ccc(OC)c(OC)c1)C(=O)[C@H](CC(=O)NCC13CC4CC(CC(C4)C1)C3)C2
22	10	-9	COc1ccc([N+](=O)[O-])cc1CN1CCN(c2ncc(Cc3ccccc3)cn2)CC1
4	-1	2	COC(=O)[C@]12CCCCC=C1N(CCC1=CCCCC1)C(=O)[C@H](CC(=O)N1CCOCC1)C2
-14	2	10	FC(F)(F)c1cc(Cl)c2nc(-c3cccc(Cl)c3)c(Cc3cccc(Cl)c3)n2c1
-10	1	-5	Cc1cc(C(=O)CN2C(=O)C(=O)N(Cc3ccccc3)C2=O)c(C)n1Cc1ccc(F)cc1
4	2	1	O=C1NC[C@H](CCCCN2C[C@H](Cc3ccc(O)cc3)N(CCc3ccccc3)C(=O)C2=O)N(CC2CCCCC2)C1=O
4	-3	9	CCCCCNC(=O)C(c1ccc(C#N)cc1)n1c(=O)c(-c2ccco2)nc2ccccc21 (stereo not given)
1	5	0	CC(C)C[C@H]1CN(CCCC[C@H]2CNC(=O)C(=O)N2CC2CCCCC2)C(=O)C(=O)N1CCc1ccccc1
51	-1	-1	Cc1ccc(CN2C(=O)c3ccccc3C2c2nnnn2-c2ccc3c(c2)OCCO3)cc1 (stereo not given)
-279	-11	-13	c1ccc(-n2nnnc2-c2cccc3ccccc23)cc1
4	7	5	CCOc1cc(OCC)cc(C(=O)N2CCC[C@H]2C(=O)N2CCC[C@H]2C(=O)N[C@H](C)c2ccccc2)c1
29	1	3	CC1(C)OC(=O)C2=C(C[C@@H](C3CC3)O[C@H]2c2ccc(Cl)cc2)O1
-72	4	1	O=C(N=Nc1c(O)[nH]c2ccccc12)Nc1ccccc1
4	-9	-17	COC(=O)c1ccc2nc(-c3cccc(Br)c3)c(Cc3ccccc3)n2c1
-4	-1	7	CC1(C)CC(=O)C2=C(C1)NC(=O)CC2

# Exported in CSV form: entries from further up
smiles,HIV Env fusion,MT1-MMP act inh,MT1-MMP act inh RFP
CC(C)C[C@H]1CN(CCCC[C@H]2CNC(=O)C(=O)N2CC2CCCCC2)C(=O)C(=O)N1CCc1ccccc1,1,5,0
Cc1ccc(CN2C(=O)c3ccccc3C2c2nnnn2-c2ccc3c(c2)OCCO3)cc1 (stereo not given),51,-1,-1
c1ccc(-n2nnnc2-c2cccc3ccccc23)cc1,-279,-11,-13

# As entered above.
# HIV Env fusion result of `O=C1NC[C@H](CCCCN2C[C@H](Cc3ccc(O)cc3)N(CCc3ccccc3)C(=O)C2=O)N(CC2CCCCC2)C1=O` is entered as 4
# HIV Env fusion result of `CCN(C)C1CN(Cc2cn(Cc3cccc(C(F)(F)F)c3)nn2)S(=O)(=O)C1` (stereo not given) is entered as 7
# MT1-MMP act inh result of `CC1(C)CC(=O)C2=C(C1)NC(=O)CC2` is entered as -1

# More compounds:
HIV Env fusion	MT1-MMP act inh	MT1-MMP act inh RFP	SMILES
7	-3	1	O=C1Nc2ccccc2-n2nnnc2C1N1CCN(c2ccc(F)cc2)CC1 (stereo not given)
2	-2	-2	COc1ccc(NC(=O)C2(C)CCN2CCOc2ccc(C)cc2)cc1OC (stereo not given)
4	1	4	CCCN(CC(=O)Nc1ccccc1C)C(=O)C1CC(=O)N(c2ccc(C)cc2)C1 (stereo not given)
23	-3	1	CC(=O)Nc1n[nH]c(=S)s1
-27	4	-3	CCOC(=O)[C@]12CCC=C1N(Cc1ccccc1)C(=O)[C@H](CC(=O)NCC1CCCCC1)C2
-6	1	-3	Cc1ccc(NC(=O)c2n[nH]c(=O)c3ccccc23)cc1S(=O)(=O)N1CCOCC1
-89[16.7 µM]	-5	-2	CC(C)NC(=O)N1Cc2cc(C(=O)NC3CCCC3)nc(-c3cccc(-c4cccnc4)c3)c2[C@H]1CCO
-25	-2	3	O=C(Nc1c(-c2ccccc2)[nH][nH]c1=O)c1cccs1
-37	-2	2	CC1CCCN(C(=O)COC(=O)COc2ccc(Cl)cc2)C1 (stereo not given)
16	6	3	CC(C)C[C@H]1CN(CCCC[C@@H]2CNC(=O)C(=O)N2Cc2ccccc2)C(=O)C(=O)N1CC1CCCCC1
-4	2	-1	CCCCC[C@@H]1CCCCC[C@H](O)C[C@H](O)[C@@H](O)/C=C/C(=O)O1
1	0	7	COC(=O)C(C(=O)OC)c1ncccc1NS(=O)(=O)c1ccc(C)cc1
-40	-8	3	Cc1ccc(C(=O)C=Cc2ccc3c(c2)OCO3)c(C)c1
-55	2	8	N#CC1=C(Nc2ccccc2Cl)SC(c2ccncc2)NC1=O (stereo not given)
15	3	-8	COc1ccc(Br)c(C=O)c1OS(=O)(=O)c1ccc(C)cc1
1	-5	4	COC(=O)[C@]12CCCCC=C1N(CCc1ccc(OC)c(OC)c1)C(=O)[C@H](CC(=O)NCCCN1CCCC1=O)C2
10	0	-3	c1ccc(Cn2c(Cn3c(-c4cnccn4)nc4ccccc43)nc3ccccc32)cc1
33	4	0	O=C1CCCCC1Nc1ccc([N+](=O)[O-])cc1 (stereo not given)
-9	2	3	CN1NC(c2ccccc2)NN(C)C1=O
-14	1	1	CC(=O)N1Cc2cc(C(=O)NCc3cccc(F)c3)nc(-c3cccc(C4=CCCC4)c3)c2[C@H]1CCO

# Continuation:
HIV Env fusion	MT1-MMP act inh	MT1-MMP act inh RFP	SMILES
-94	-44	-40	COC(=O)[C@@]1(Cc2ccc(OC)cc2)[C@H]2c3cc(C(=O)N4CCCC4)n(Cc4ccc(Cl)c(C(F)(F)F)c4)c3C[C@H]2CN1C(=O)c1ccccc1
-242	5	-8	N#CC(=C1C=CC(=NO)C(Cl)=C1)c1ccccc1
-11	7	0	O=C(CC1SC(N2CCCC2)=NC1=O)Nc1ccc(C(=O)NCCOc2ccccc2F)cc1 (stereo not given)
2	-2	-3	C/C=C/c1cccc(-c2nc(C(=O)NC3Cc4ccccc4C3)cc3c2[C@@H](CCO)N(C(C)=O)C3)c1
-23	5	5	CC(C)C[C@H]1CN(CCCC[C@@H]2CNC(=O)C(=O)N2Cc2ccccc2)C(=O)C(=O)N1CCC1CCCCC1
7	0	-2	COC(=O)[C@@]12C[C@@H](CC(=O)N3CCC(c4ccccc4)CC3)C(=O)N(Cc3ccco3)C1=CCC(C)(C)C2
-12	2	0	CSc1nc(COC(=O)NC(C)C)c(COC(=O)NC(C)C)n1Cc1ccccc1
-49	7	1	CCOC(=O)[C@]12CCC=C1N(CCC1=CCCCC1)C(=O)[C@H](CC(=O)NCc1ccccc1)C2
-4	-1	3	O=C1N2CCCCC1(c1ccccc1)CCCC2
-170	9	-14	COc1cc2c(c(OC)c1OC)-c1ccc(SC)c(=O)cc1C(NC=O)CC2 (stereo not given)
-247	4	1	CCCCC[C@H](C)N1C[C@@H](COCc2ccccc2)Oc2cc(N3CCC[C@H]3C(N)=O)ccc2S1(=O)=O
-7	0	4	CCOC(=O)[C@]12CCC=C1N(Cc1ccco1)C(=O)[C@H](CC(=O)N1CCCCC1)C2
47	6	2	COc1cc(C=C2Cc3ccccc3C2=O)cc(OC)c1OC
-3	0	4	O=C(NCCc1ccccc1)C1C(=O)Nc2ccccc2C(=O)N1C1CCCCC1 (stereo not given)
5	4	4	O=C(CC1Sc2ccccc2NC1=O)NNc1ccc(F)cc1 (stereo not given)
27	-1	-5	COc1cc(C2c3cc4c(cc3OC(N3CCOCC3)C2C)OCO4)cc(OC)c1OC(C)=O (stereo not given)
29	3	0	CCOC(=O)c1cc2cc(OC)ccc2n1C1CCN(CCc2ccccc2)CC1
-181	-1	-1	O=C1NC[C@H](CCCCN2C[C@H](Cc3ccccc3)N(CC3CCCCC3)C(=O)C2=O)N(CCc2ccccc2)C1=O
-60	3	-10	O=C(/C=C/c1ccc(S(=O)(=O)N2CCOCC2)cc1)Nc1cc(F)ccc1F
-26	7	5	O=C1NC[C@@H](CCCCN2C[C@H](Cc3ccc(O)cc3)N(CCc3ccccc3)C(=O)C2=O)N(Cc2ccccc2)C1=O

# Results in MT1-MMP act inh and HIV Env fusion, for some of the entries so far:
Molecule	MT1-MMP act inh	HIV Env fusion
O=C1N2CCCCC1(c1ccccc1)CCCC2	-1	-4
COc1cc2c(c(OC)c1OC)-c1ccc(SC)c(=O)cc1C(NC=O)CC2 (stereo not given)	9	-170
CCCCC[C@H](C)N1C[C@@H](COCc2ccccc2)Oc2cc(N3CCC[C@H]3C(N)=O)ccc2S1(=O)=O	4	-247
CCOC(=O)[C@]12CCC=C1N(Cc1ccco1)C(=O)[C@H](CC(=O)N1CCCCC1)C2	0	-7

# The list continues.
HIV Env fusion	MT1-MMP act inh	MT1-MMP act inh RFP	SMILES
-3	-10	-12	COC(=O)[C@]12CCCCC=C1N(Cc1ccc(Cl)cc1Cl)C(=O)[C@H](CC(=O)NCCc1ccccc1OC)C2
?	4	3	CC(C)C[C@H]1CN(CCCC[C@H]2CNC(=O)C(=O)N2Cc2ccccc2)C(=O)C(=O)N1CCc1ccc(O)cc1
6	1	-2	Cc1ccc2c(c1)S(=O)(=O)N(C)C(c1ccccc1)=C2
-15	19	6	Cc1cc(=O)n2c3c(c4c(cc13)c(CN(C)C)cc(=O)n4C)OC2
-21	3	-1	CCOC(=O)[C@]12CCCC=C1N(Cc1ccc(Cl)cc1Cl)C(=O)[C@H](CC(=O)N1CCN(C(=O)C3CC3)CC1)C2
-5	11	24	O=C1CSC(=S)N1Cc1cccs1
-7	14	0	COc1ccc(C=NN=C2c3ccccc3-c3ccccc32)cc1O
1	-1	5	O=C(COc1ccccc1Cl)N1CCNC1=O
7	-18	-29	Nc1nc(N)c2c(ccc3c2ccn3Cc2cccc([N+](=O)[O-])c2)n1
-138	13	-9	COC(=O)C1=CN(c2ccc3c(c2)OCO3)C(N)=C(C#N)C1c1ccc(-c2ccccc2)cc1 (stereo not given)
12	3	2	CN(Cc1ccccc1)C(=O)[C@@H]1CCCN1C(=O)OC(C)(C)C
0	0	4	CN(C)CCN1CCN(C(c2ccnc3ccccc23)c2nnnn2-c2ccc3c(c2)OCCO3)CC1 (stereo not given)
10	1	5	N#CCCCC1(CCCC#N)OCCO1
-3	-5	2	NC(=S)NN=Cc1ccc(-c2ccc(S(=O)(=O)Nc3ncccn3)cc2)o1
10	8	10	CC(C)C1Cc2[nH][nH]c(=O)c2C(C2CC2)O1 (stereo not given)
-5	-45	32	O=C1c2ccccc2C(=O)c2c(/C=C/N3CCCCC3)ccnc21
-4	-5	3	O=C1/C(=C\c2ccc(Cl)cc2)CCC1CNc1ccc(Cl)cc1 (stereo not given)

# Profiles as entered above:
# O=C1c2ccccc2C(=O)c2c(/C=C/N3CCCCC3)ccnc21 as listed: HIV Env fusion = -5; MT1-MMP act inh = -45; MT1-MMP act inh RFP = 32
# CCOC(=O)[C@]12CCCC=C1N(Cc1ccc(Cl)cc1Cl)C(=O)[C@H](CC(=O)N1CCN(C(=O)C3CC3)CC1)C2 as listed: HIV Env fusion = -21; MT1-MMP act inh = 3; MT1-MMP act inh RFP = -1
